# VACV E9 pol inh: vaccinia E9 polymerase processive synthesis inhibition; normalized absorbance, % (concentration not given with the values); in vitro processive DNA synthesis, absorbance read-out; hits give low values; some inactives read as strong as hits; AID 493162; actives 0.94% (n = 46,000);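 active means replicate mean up to 90% and picked by the depositor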;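 further: 100% = median of the test wells of a plate; 100 nL library stock went into each well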
# * marks the source's active call; other numbers are inactive results.
SMILES,VACV E9 pol inh
COc1ccc(N2CCN(c3c(S(=O)(=O)c4ccccc4)cnc4ccc(Cl)cc34)CC2)cc1,98.6
CCC(C)Nc1nc(-c2ccc(Cl)cc2)cs1 (stereo not given),101.3
CCN(CCS(=O)(=O)c1ccccc1)S(=O)(=O)c1ccc(C)cc1,97.8
CC1(C)CC(NC(=O)c2ccc(-n3cnnn3)cc2)CC(C)(C)N1,99.5
CC(C)c1ccc(NN2C(=O)CC(c3ccccc3)C2=O)cc1 (stereo not given),98.9
Cc1nc(SC2CCCCN(C(=O)c3ccc(Cl)cc3)C2=O)c2c3c(sc2n1)CCCC3 (stereo not given),100.0
O=C(O)Cc1c(Sc2ccccc2)c2ccccc2n1Cc1ccccc1,99.0
COC(=O)c1nc[nH]c1C(=O)OC,100.4
COC(=O)c1c(I)cnn1C,100.6
COc1ccc(C(=O)N2CCN(c3ccc(N4CCOCC4)nn3)CC2)cc1,101.0
CCN(CC)C(=O)COc1ccc(-c2nnc(Nc3ccc(OC)c(C(N)=O)c3)c3ccccc23)cc1,100.2
O=C(Nc1ccc(OC(F)(F)F)cc1)NC1CCN(c2nccc(C(F)(F)F)n2)CC1,105.3
O=C(Nc1nncs1)C12CC3CC(CC(C3)C1)C2,99.5
N=c1sccn1CC(=O)O,100.2
COc1ccccc1CN(C(C)=O)C1CC(C)(C)N(C(C)=O)C(C)(C)C1,100.3
ClCc1csc(-c2ccccc2)n1,96.4
O=C(OCCCN1CCCCC1)c1ccc(O)cc1,101.4
O=c1[nH]c(CSc2nc3ccccc3o2)nc2ccccc12,109.0
O=C(COc1ccc(Cl)cc1)N1CCN(Cc2ccc3c(c2)OCO3)CC1,100.0
O=C(Nc1nnc(-c2ccc(Br)cc2)s1)C1CC1,99.7
CCc1ccc(N(CC)c2ncnc3c2nc2n3CCCCC2)cc1,101.6
CCCCCc1cc(O)c2c(c1)OC(C)(C)c1ccc(C)cc1-2,99.3
[O-]c1nn(-c2cccc(Cl)c2)n[n+]1-c1cccc(Cl)c1,89.1
COc1cccc(C2=NOC(C(=O)NCC3CCCO3)C2)c1 (stereo not given),101.7
O=C(CSc1ccccc1)c1ccccc1,99.6
Cc1ccc(C(=O)OC(C)CN2C(C)CCCC2C)cc1 (stereo not given),100.0
Cc1ccc(C(=O)Nc2c(-c3ccccc3)nc3scnn23)cc1,104.4
CC(=O)Nc1c(-c2ccccc2)nc2cc(C)ccn12,112.7
CCn1c(=O)c2cc(C(=O)NCCN(C)C)sc2c2ccccc21,73.6
COC(=O)c1cc(NC2c3ccccc3C(=O)N2c2ccccn2)cc(C(=O)OC)c1 (stereo not given),89.6
CC(C)(C)OC(=O)N1CCC(CNC(=O)Nc2ccccc2)CC1,109.6
CC1=CC(C)(C)N(C(=O)CSc2ccccn2)c2ccccc21,98.1
CCc1ccc(NC(=O)Nc2nnc(N(CC(C)C)CC(C)C)s2)cc1,111.2
Cc1noc2c1C(c1ccccc1)C1=C(CC(C)(C)CC1=O)N2 (stereo not given),96.3
O=C(OCCNc1c(F)c(F)nc(F)c1F)c1ccccc1,98.3
O=C(NCC[n+]1ccc2ccccc2c1)c1ccccc1,99.5
CSc1ccccc1Nc1ncnc2c1cnn2-c1ccccc1,98.1
CC(C)(C)c1ccc(C23OC(=O)C(C)(C)C2OC(=O)C3(C)C)cc1 (stereo not given),100.2
CN1CCC(OC(=O)COc2ccccc2)CC1,93.7
CNC(C)(C)Cc1ccccc1,102.8
CS(=O)(=O)N(Cc1cccc(F)c1)n1c(SCc2cccc(F)c2)nc2ccccc2c1=O,102.4
CN1CCN(c2cc(-c3ccncc3)nc3ccccc23)CC1,83.0
O=C(CSC(=O)c1ccccc1)Nc1ccc(Cl)cn1,100.6
OCCN1N=C2c3ccccc3CCC2C1c1ccccc1Cl (stereo not given),88.8
O=C(Nc1ccc(F)cc1)OC1CN2CCC1CC2 (stereo not given),83.5
CCOC(=O)c1cnn2c1nc(Sc1cccc(OC)c1)c1ccccc12,111.5
c1ccc2c(c1)-c1ccccc1C2C1CCNCC1,94.8
Nc1nc2c(ncn2COCCO)c(=O)[nH]1,94.3
CCCCS(=O)(=O)C1CCS(=O)(=O)C1 (stereo not given),95.9
Cc1cc(C)nc(SCCS(=O)(=O)Cc2ccc(Cl)cc2)n1,111.8

# Continued:
SMILES,VACV E9 pol inh
Cc1c(Cl)cccc1NC(=O)N1CC(C)Sc2ccccc21 (stereo not given),100.3
CCCCn1c(C(C)O)nc2ccccc21 (stereo not given),99.4
Cn1c(CNC(=O)Cc2ccccc2)nc2ccccc21,100.3
COc1ccc(NC(=O)c2sc(=S)[nH]c2N)cc1,100.7
COC(=O)c1cccnc1-c1nc2ccccc2s1,81.7
CSc1nc(C)cc(NC(N)=O)n1,100.1
Cc1cccc2c1cnn2C(=O)Nc1cccc(C(F)(F)F)c1,95.2
O=C(c1ccco1)N1CCN(S(=O)(=O)c2c(F)cccc2F)CC1,106.3
CN(C)c1ccc(C(O)c2nc3ccccc3n2Cc2ccccc2)cc1 (stereo not given),102.6
c1cc(CNCCN2CCOCC2)ccn1,76.9

# Four compounds already listed, arranged by count of non-hydrogen atoms, lowest first.
SMILES,VACV E9 pol inh
CCCCn1c(C(C)O)nc2ccccc21 (stereo not given),99.4
COc1ccc(NC(=O)c2sc(=S)[nH]c2N)cc1,100.7
Cn1c(CNC(=O)Cc2ccccc2)nc2ccccc21,100.3
Cc1c(Cl)cccc1NC(=O)N1CC(C)Sc2ccccc21 (stereo not given),100.3

# Later entries.
SMILES,VACV E9 pol inh
Cc1ccccc1COc1ccc(-c2nn[nH]n2)cc1,101.4
CC(=O)SC(CC(=O)O)c1nc2ccccc2s1 (stereo not given),100.4
CCCSc1nc(C)c(-c2csc(C(C#N)=C3CCCC3)n2)cc1C#N,99.8
O=C(CSC1=NC(=O)C(c2ccccc2)C(=O)N1)Nc1ccc(Cl)cn1 (stereo not given),99.7
CN1CCc2c(sc(NC(=O)c3ccc4ncsc4c3)c2C(N)=O)C1,85.4*
CC(NC(=O)Cc1cccs1)C(c1cccs1)N1CCOCC1 (stereo not given),100.2
N#CCC(=O)NC(=O)NC12CC3CC(CC(C3)C1)C2,76.7
O=C(Nc1cccc(Br)c1)c1cccc2c1C(=O)c1ccccc1-2,100.2
COCCCCCCCCCCCC(=O)O,99.7
Cc1ccccc1C(=O)NC(=S)Nc1ccc(-c2nc3ccccc3o2)cc1,99.9
CCC(=O)N1CCN(c2ccc(NCc3ccccc3)cc2)CC1,102.8
Cc1cc(SCC(=O)N2CCCCC2)nc2ccccc12,105.6
Cc1ccc(C(=O)Cc2cc3ccccc3oc2=O)cc1,100.2
Cc1ccccc1CN1C(=O)C(O)(CC(=O)c2ccc(N)cc2)c2ccccc21 (stereo not given),90.4
Cn1c(SCC(=O)N2CCCC2)nnc1-c1c[nH]c2ccccc12,100.5
CC(=O)Nc1cc(C(=O)NCCN(C)C)ccc1Sc1ccc(C)cc1,86.9
O=c1sc2ccccc2n1CCOc1ccccc1,81.8
O=C(NCCN1CCN(c2nccc(C(F)(F)F)n2)CC1)NC1CCCCC1,103.6
O=C(NCCc1ccc(Cl)cc1)c1ccc2c(Cl)c3c(nc2c1)CCCC3,96.1
CC1CCCCC1N(C)C1CCN(CCNC(=O)/C=C/c2ccccc2)CC1 (stereo not given),102.6
CC(=O)Nc1ccc(S(=O)(=O)N2CCCC2C(=O)O)cc1 (stereo not given),100.6
CS(=O)(=O)c1ccc(Cl)c(NC(=O)c2cccnc2)c1,103.2
CC1CCCC(NC(=O)COC(=O)c2ccc3ccccc3n2)C1C (stereo not given),102.4
COC(=O)C(F)(F)Sc1c(C)[nH]c2ccccc12,99.7
CCOc1ccc(N=CC2=C(O)CNC2=O)cc1,100.0
CCCC1CCC(C(=O)n2nc(N)c3cc4ccc(OC)cc4nc32)CC1 (stereo not given),85.8
N#Cc1ccsc1/N=C/c1ccccc1,105.1
Cc1ccccc1NC(=O)CN1C(=S)NC(C)(C)CC1C (stereo not given),96.4
COC(=O)c1ccc(S(=O)(=O)NCc2cccc(OC)c2)n1C,102.0
Cc1[nH]nc(-c2ccc(O)cc2O)c1Oc1ccccc1,98.6
Cc1ccc(CNC(=O)c2cccc(Nc3nc4ccccc4n4cnnc34)c2)cc1,84.9
CN1CSC2=C(C#N)C(c3ccccc3)CC(=O)N2C1 (stereo not given),101.5
Cc1cc(C)c(C#N)c(SCc2nc(-c3ccc(OC(F)(F)F)cc3)no2)n1,99.5
O=C1C=CC2(C=C1)CC1(CCCCC1)N=C2SCc1ccccc1,99.8
OC(CNCC1CCCO1)COC(c1ccc(Cl)cc1)c1ccc(Cl)cc1 (stereo not given),96.2
CCN(CC)C(=O)CSc1nc2c(c(=O)n(C)c(=O)n2C)n1CC,98.1
CCOc1ccc(C(=O)N2CC(=O)Nc3ccc(C)cc3C2c2ccccc2)cc1 (stereo not given),96.4
Cc1cc(C)nc(SCNC(=O)c2ccccc2)n1,90.5
Cc1cc(C(=O)O)c(CSc2ncn[nH]2)o1,97.9
CCC(=O)Oc1cc2c(C)cc(=O)oc2cc1Cl,98.8
O=C1N/C(=C\c2ccccc2Cl)C(=O)N1Cc1ccc(Cl)cc1,100.1
O=C1c2ccccc2C(=O)N1CC1OCc2ccccc2CO1,100.0
O=C(NCc1ccncc1)c1cc2ccccc2nc1Cl,109.2
CN(Cc1ccccc1)C(=O)c1cc(-c2ccc(Cl)cc2)on1,101.0
Cc1ccsc1C(=O)OCC(N)=O,107.5
COc1ccc(-c2cc(-c3ccccc3)c(-c3ccccc3)nn2)cc1CN1CCOCC1,96.8
O=C(c1cn[nH]c1)c1cc(F)ccc1O,101.5
O=C(O)c1ccc(C(=O)O)c(C(=O)c2ccccc2)c1,100.6
Cc1cc(NC(=O)NC2CC(=O)N(C3CCCC3)C2)ccc1Br (stereo not given),98.4
COc1cc(C(=O)N(Cc2ccccc2)Cc2cc3ccc(C)cc3[nH]c2=O)cc(OC)c1OC,90.6

# More records.
SMILES,VACV E9 pol inh
Cc1ccc(C(=O)[C@@H]2[C@@H](C(C)(C)C)C(C#N)(C#N)[C@@]3(C)C=Cc4ccccc4N23)cc1,99.2
N#Cc1cccc(C(=O)O)c1,102.0
O=C(CCOc1ccccc1)NCc1ccco1,99.6
CC1(C)CC(=O)C2=C(C1)N(CCN1CCOCC1)C1=C(C(=O)CC(C)(C)C1)C2c1cccc(Cl)c1,102.6
CC(=O)Nc1ccc(NC(=O)CSc2cccc[n+]2[O-])cc1,97.5
CCCn1c2ccccc2n2c(C(=O)c3cccs3)c(C)nc12,102.3
COc1ccc(C(=O)N2CC(C)N(C(=O)c3ccc(OC)c(OC)c3)CC2C)cc1OC (stereo not given),95.0
Cc1ccc(C)n1-c1nnc(N2CCCC(C(=O)O)C2)s1 (stereo not given),90.7
CCOC(=O)/C=C(\C)Nc1ccc2cn[nH]c2c1,97.6
CCc1ccc(OCC(=O)Nc2sc3c(c2C(=O)OC)CCCC3)cc1,100.2
Cc1ccc2c(c1)CCCN2C(=S)Nc1cccc(C(F)(F)F)c1,99.1
O=C(CSCc1ccc(Cl)cc1)NCc1ccc2c(c1)OCO2,100.4
O=C1CSC(=Nc2ccccc2C(F)(F)F)N1,95.5
CCOC(=O)C1CCCN(C(=O)c2ccc3c(c2)NC(=O)c2ccccc2S3)C1 (stereo not given),97.2
Cc1ccc(C)c(N2CCN(C(=O)CN3CC(c4ccccc4)CC3=O)CC2)c1 (stereo not given),101.6
C=NC(C(=O)NC1C(=O)N2C1SC(C)(C)C2C(=O)O)c1ccccc1 (stereo not given),99.9
O=C(NC12CC3CC(CC(C3)C1)C2)N1CCC(CN2CCCCC2)CC1,108.0
CCOC(=O)c1c(NC(=O)c2ccc(Cl)s2)sc(C)c1C,89.9
COc1ccc(-c2cc(C3CCNCC3)[nH]n2)cc1,94.1
Cc1ccc(NC(=O)COC(=O)COc2ccc(Cl)cc2)cc1C,93.8
COc1ccc(C(=O)OCc2nc3ccccc3s2)cc1OC,91.6
COc1ccc2[nH]c3c(=O)n(CC(=O)NCCc4ccc(OC)c(OC)c4)c(=S)[nH]c3c2c1,97.6
CCc1ccc(OCC(O)CN2CCN(Cc3ccc4c(c3)OCO4)CC2)cc1 (stereo not given),97.4
NNc1ccc2c(Cl)cc(Cl)c(O)c2n1,80.9
O=C(Nc1nccs1)c1cccc(Cl)c1,102.1
CCN1CCc2c(sc(NC(=O)c3ccc4c(c3)CCCC4)c2C(N)=O)C1,88.4
O=C(NCCCN1CCCC1)c1cc2c(s1)-c1ccccc1OC2,89.4
COc1ccccc1OCCn1c(CO)nc2ccccc21,90.6
Nc1nnc(CCN2C(=O)S/C(=C/c3ccccc3)C2=O)s1,100.6
COC(=O)CNC(=O)c1cn(-c2ccc(C)c(C)c2)c(=O)c2ccccc12,100.0

# 6 records drawn at random from the list so far, as already listed:
SMILES,VACV E9 pol inh
COc1ccc(C(=O)OCc2nc3ccccc3s2)cc1OC,91.6
NNc1ccc2c(Cl)cc(Cl)c(O)c2n1,80.9
O=C(NCCCN1CCCC1)c1cc2c(s1)-c1ccccc1OC2,89.4
COC(=O)CNC(=O)c1cn(-c2ccc(C)c(C)c2)c(=O)c2ccccc12,100.0
Nc1nnc(CCN2C(=O)S/C(=C/c3ccccc3)C2=O)s1,100.6
O=C(Nc1nccs1)c1cccc(Cl)c1,102.1

# Further results:
SMILES,VACV E9 pol inh
COc1ccc(OCC(=O)NC(C)CCc2ccccc2)cc1 (stereo not given),104.7
COc1ccc2c(=O)c(-c3ccc4c(c3)OCCO4)coc2c1,94.5
CC12CCC(C(=O)Nc3ccc(Cl)cn3)(CC1=O)C2(C)C (stereo not given),105.9
CCOc1cc(/C=c2/sc3nc4ccccc4n3c2=O)ccc1OC,99.9
COc1ccc(Oc2cc(C(F)(F)F)nc3cc(C(C)(C)C)nn23)cc1,105.2
O=C(NCCCn1ccnc1)c1cc2ccccc2o1,104.7
CCCN(CCC)C(=O)c1cc2ccccc2cc1O,119.2
Cc1ccc(C(=O)Oc2c(C)cc(-c3nn(C)c(=O)c4ccccc34)cc2C)cc1,111.2
COC(=O)c1cccc2c(Br)ccc(C(=O)OC)c12,100.2

# By substructure: the compounds so far with a furan ring, fused or not.
SMILES,VACV E9 pol inh
O=C(c1ccco1)N1CCN(S(=O)(=O)c2c(F)cccc2F)CC1,106.3
Cc1cc(C(=O)O)c(CSc2ncn[nH]2)o1,97.9
O=C(CCOc1ccccc1)NCc1ccco1,99.6
O=C(NCCCn1ccnc1)c1cc2ccccc2o1,104.7

# Bioassay records as filed in PubChem.

# This is a subset, so the mix of outcomes need not match the whole.
